# WNV NS2B-NS3 inh: inhibitors of West Nile virus NS2B-NS3 protease; P06935; z-score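 (tested at a level between 10 and 100 µM)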; WNV NS2B-NS3 protease, fluorogenic substrate Ex360/Em465; active compounds read low; 0.18% of 65,000 active;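 active = z-score at -3 or under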;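 also: score is relative to mean and spread of the compound wells of a plate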
# Target sequence (P06935 1371-1501 limits assumed): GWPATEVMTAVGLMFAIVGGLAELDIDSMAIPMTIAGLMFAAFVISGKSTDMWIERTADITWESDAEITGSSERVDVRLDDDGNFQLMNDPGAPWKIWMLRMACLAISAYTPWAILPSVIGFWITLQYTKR
# Target sequence (P06935 1502-1679 limits assumed): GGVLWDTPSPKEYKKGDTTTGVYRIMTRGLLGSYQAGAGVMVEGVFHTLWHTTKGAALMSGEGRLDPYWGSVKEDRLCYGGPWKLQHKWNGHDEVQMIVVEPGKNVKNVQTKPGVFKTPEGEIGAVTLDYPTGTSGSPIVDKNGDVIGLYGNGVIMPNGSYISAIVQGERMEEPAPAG
# Hsc70 ATP site: Hsc70 inhibitors, probe displacement, primary screen, biochemical, fluorescence polarization (AID 568) | Hsc70 fluorescence polarization, probe displacement; higher % means a stronger effect; strong numbers were not always called active | one-dose displacement, % at 20 µM; IC50 in µM for titrated hits | 83,000 tested, under 10 active;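 active = displacement above 50% without optical interference and an IC50 on retest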;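 also: ATPase domain with a fluorescein-tagged ATP probe; 0% = vehicle and 100% = excess ADP; read after one hour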
# MT1-MMP promoter: inhibitors of MT1-MMP promoter transcription, cell-based, luciferase reporter, luminescence (AID 618); MT1-MMP promoter luciferase reporter cells, luminescence; calls from a first round at 10 µM; hits with a dose series show EC50 in µM; 0.62% of 87,000 active;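 active = over half of the reporter light lost at 10 µM or EC50 under 50 µM; inactive = the rest and hits that failed the dose series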;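 also: actives suppress MT1-MMP promoter-driven transcription so potencies describe inhibitors; HT1080 fibrosarcoma cells; overnight exposure; toxic or luciferase-blocking compounds were not removed from the actives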
# * hit, by the source's call; i = inactive; x = no result given. Only part of the results is shown; the hit share may differ from the screen's.
structure,WNV NS2B-NS3 inh,MT1-MMP promoter,Hsc70 ATP site
CC(C)n1c(SCC(=O)N2c3ccccc3Sc3ccccc32)nc2c1c(=O)n(C)c(=O)n2C,0.1,i,-1.4%
Cc1cc2ccccc2n1CCNC(=O)c1ccc(S(=O)(=O)N2CCOCC2)cc1,-0.55,i,11.2%
COCc1nnc(NC(=O)CSc2ccccc2)s1,-0.36,i,-0.2%
CCOC(=O)C1CCCN(c2c(NCCCN(C)c3ccccc3)c(=O)c2=O)C1 (stereo not given),0.57,i,5.8%
Cc1nc2ccccn2c1/C(O)=C1\C(=O)C(=O)N(CCN2CCOCC2)C1c1cccnc1 (stereo not given),-1.67,i,6.6%
COc1ccc(C(=O)Cn2c(Br)nc3c2c(=O)n(C)c(=O)n3C)cc1,-0.3,i,-3.7%
O=C(O)c1ccc(CNC(=O)c2ccc(Br)o2)cc1,0.26,i,-6.1%
COCCOc1nc2ccccc2nc1C,0.15,i,-2.5%
O=C(CSc1cccc(C(F)(F)F)c1)NC(=O)NCc1ccco1,1.44,i,-4.2%
COc1ccc2sc(NC(C)=O)nc2c1,-0.92,i,0.0%
CCNC(=O)c1nc[nH]c1C(=O)NCC,-0.5,i,7.0%
Cn1c(N)c(C(=O)c2cc(-c3ccccn3)nc3ccccc23)c(=O)[nH]c1=O,0.63,i,-1.8%
c1ccn2c(SCc3ccc4c(c3)OCO4)nnc2c1,1.3,i,-3.6%
Cc1cc(=O)[nH]c(SCc2cc(Cl)ccc2OC(F)F)n1,-1.28,i,-5.3%
Cc1cc(C)n(-c2ccc(C(=O)Oc3ccc4c(c3)OCO4)cc2)n1,0.38,i,-0.3%
CCOC(=O)C(C(=O)NCCCN1CCOCC1)C1CCCCC1 (stereo not given),x,i,-3.6%
c1nc(N2CCOCC2)c2sc3nc(N4CCOCC4)c4c(c3c2n1)CCCC4,-0.07,i,-2.5%
O=c1[nH][nH]c(C(F)(F)F)c1C=NCc1ccc(Cl)cc1,x,i,5.5%
Cc1nn(-c2ccccc2)c(Oc2ccc(F)cc2)c1/C=N/n1cnnc1,-0.58,i,-5.0%
O=C1OCC(Cn2c3ccccc3c3ccccc32)O1 (stereo not given),-0.12,i,4.8%
CCOC(=O)N1CCN(Cc2cc(=O)oc3ccc(Cl)cc23)CC1,-0.75,i,0.1%
Cc1onc(-c2ccccc2Cl)c1C(=O)N1CCN(c2nc3ccccc3s2)CC1,1.2,i,-1.4%
COc1ccc(CC(=O)Nc2c3c(nn2-c2cccc(C)c2C)CS(=O)C3)cc1 (stereo not given),0.09,i,-4.2%
COc1cc2c(=O)n(CCCN3CCOCC3)c(=S)[nH]c2c(OC)c1OC,-1.09,i,-3.1%
COc1cc2c(cc1OC)C(C(=O)Nc1ccc3c(c1)OCCO3)C(c1cccnc1)N(C)C2=O (stereo not given),2.45,i,8.6%
CC1CCCCC1NC(=O)CN1C(=O)CSc2cc(S(=O)(=O)N3CCCCCC3)ccc21 (stereo not given),x,i,2.4%
Cn1c(=O)[nH]c(=O)c2c1nc(N1CCCCCC1)n2CC(=O)c1ccccc1,-1,i,4.1%
CCOC(=O)c1[nH]c2ccc(OC)cc2c1NS(=O)(=O)c1ccc(OC)cc1OC,-0.03,i,-3.0%
CCOc1ccc(S(=O)(=O)Nc2cc(Sc3ncn[nH]3)c3oc(=O)sc3c2)cc1,0.72,i,-4.3%
CCn1c2c(c3cc(OCC(C)C)ccc31)CCCC2=O,x,i,2.0%

# 2 compounds drawn at random from the list so far, as already listed:
structure,WNV NS2B-NS3 inh,MT1-MMP promoter,Hsc70 ATP site
CCOC(=O)c1[nH]c2ccc(OC)cc2c1NS(=O)(=O)c1ccc(OC)cc1OC,-0.03,i,-3.0%
c1nc(N2CCOCC2)c2sc3nc(N4CCOCC4)c4c(c3c2n1)CCCC4,-0.07,i,-2.5%

# (continued)
structure,WNV NS2B-NS3 inh,MT1-MMP promoter,Hsc70 ATP site
Cc1oc(-c2ccc(Cl)cc2)nc1CN1CCC(C(=O)N2CCN(c3ccccn3)CC2)CC1,0.17,i,-2.3%
O=C(CN(CCN1CCOCC1)C(=O)Cn1nnc(-c2ccc(F)cc2)n1)NC1CCCCC1,-1.31,i,-0.3%
Cc1sc2ncnc(OCC(=O)N3CCN(S(=O)(=O)c4ccc(Cl)cc4)CC3)c2c1C,-0.38,i,-3.5%
Cc1nc(=O)cc(-c2ccccc2)n1-c1ccccc1,-0.97,i,-1.7%
CC1CCCCN1S(=O)(=O)c1ccc(S(=O)(=O)N2CCN(c3ccc(F)cc3)CC2)cc1 (stereo not given),0.08,i,-3.6%
CCN(CC)P1(=O)OC(c2cc(OC)c(OC)c(OC)c2)=Nc2c1c(C)nn2-c1ccccc1 (stereo not given),-0.32,i,0.9%
CC(Sc1nnnn1C)C(=O)Nc1ccc(Oc2ccccc2)cc1 (stereo not given),0.72,i,1.1%
CC1CCC/C(=N\NC(=S)NCc2ccccc2)C1 (stereo not given),x,i,-2.1%
COc1ccc(-c2nc(CN3CCC(C(=O)NC(C)C)CC3)c(C)o2)cc1OC,0.24,i,-0.1%
O=C(Cn1c(=O)n(-c2cccc(Cl)c2)c(=O)n1CC(=O)N1CCCCC1)N1CCCCC1,0.81,i,3.8%
CCNC(=O)c1c(NC(C)=O)sc2c1CCCC2,x,i,3.6%
Cc1cc(-c2ccccc2)nc(N2CCC(C(=O)NC(C)C)CC2)n1,0.78,i,2.2%
O=C(CSc1ncnc2ccccc12)Nc1ccc(N2CCOCC2)cc1,-0.28,i,-2.2%
O=S(=O)(c1ccc(F)cc1)N1CN(Cc2ccco2)c2nc3ccccc3nc21,x,i,-7.2%
CCc1cccc(C)c1NC(=O)C1=C(C(=O)O)CCCC1,-0.09,i,8.2%
O=C(Nc1ccccc1C(=O)NCc1ccco1)c1ccco1,-0.48,i,6.6%
CSc1ccccc1NC(=O)CSc1nnnn1-c1ccccc1SC,-0.52,i,2.4%
Cc1ccc2nc3c(cc2c1)c(NC(=O)c1cccnc1)nn3C,-0.05,i,3.1%
Cc1c(/C=C/C(=O)c2ccc(Cl)s2)cnn1C,x,i,-8.7%
CCOC(=O)N1CCN(C(=O)CSc2nnc(-c3cccs3)o2)CC1,-1.4,i,3.0%
COc1ccc(C(c2nnnn2Cc2cccs2)N2CCN(c3ccccc3)CC2)cc1OC (stereo not given),-0.18,i,1.0%
O=C(CCNS(=O)(=O)c1cccc2nsnc12)N1CC(=O)N(CCc2ccccc2)C(=O)C1,-0.3,i,0.0%
COC(=O)c1ccc(COC(=O)c2ccc(-n3cnnn3)cc2)o1,1.67,i,-2.0%
COc1cccc(-c2nnc(SCC(=O)OC(C)C)n2Cc2ccco2)c1,-1.22,i,2.7%
C=CCOc1c(Br)cc(CNn2nnnc2N)cc1OC,-0.24,i,-2.6%
COc1cc2c(cc1OC)CN(C(=O)c1cc(=O)c3ccccc3o1)CC2,x,i,5.5%
CCN(CC)C(=O)CSc1nc(-c2ccco2)cc(C(F)(F)F)c1C#N,x,i,4.4%
Cc1nc2ccc(S(=O)(=O)NCC(=O)N3CCN(c4ccccc4)CC3)cc2s1,-0.73,i,3.7%
O=C(O)c1cccc(S(=O)(=O)N2CCSCC2)c1,0.93,i,-1.0%
COc1ccccc1-n1c(SC)nc(O)cc1=O,0.13,i,0.5%
CCCCCCn1c(-c2ccco2)nc2oc3cc(OC)ccc3c(=O)c2c1=O,-0.52,i,-37.7%
O=C(O)CCCC(=O)Nc1ccn(-c2ccccc2)n1,-0.07,i,0.8%
O=C(CN1CCOCC1)Nc1nc(-c2ccc3c(c2)CCN3S(=O)(=O)c2ccccc2)cs1,0.82,i,-0.8%
COc1ccc2c(c1)C1(Nc3ccccc3C(=O)N1c1ccccc1)C(=O)N2 (stereo not given),-0.29,i,2.0%
CC(C)n1nnnc1SCC(=O)N1CCOCC1,1.44,i,-4.1%
Cc1cc(C)n(CC(=O)n2c3ccccc3c3ccccc32)n1,-0.26,i,-1.0%
COC(=O)c1cc(=O)n(C2CC2)c(=NC2CC2)s1,0.93,i,-8.7%
CC1CCCCN1c1nc2nonc2nc1N1CCCCC1C (stereo not given),x,i,0.1%
CCCCNC(=O)c1ccc(CS(=O)(=O)c2ccc(OC)cc2)o1,-0.82,i,0.9%
CCOc1ccc(-c2nnc3sc(-c4ccccc4OC)nn23)cc1,0.51,i,-4.2%
CCCCSc1nnc([C@@H]2CCCN2C(=O)OC(C)(C)C)o1,-0.19,i,2.9%
O=C(O)CCC(=O)Nc1ccc(OCC(=O)O)cc1,x,i,-5.1%
O=C(CCc1nc2ccccc2[nH]1)Nc1ccccc1,0.15,i,-4.7%
O=C1c2ccccc2NC2CCCCC12 (stereo not given),1.28,i,-8.3%
O=C(Cn1c(-c2ccccc2)noc1=O)Nc1ccc(N2CCCCCC2)cc1,0.28,i,0.3%
Cc1cc(NC(=O)c2cccc(S(=O)(=O)N3CCOCC3)c2)c2ccccc2n1,1.83,i,7.0%
COc1ccc2cc(CCNC(=O)c3ccc(Br)o3)c(=O)[nH]c2c1,-0.36,i,3.2%
COC(=O)c1ccc(OC(=O)c2ccco2)cc1,0.32,i,5.9%
COc1cc(C2NC(=O)NC(C)=C2C(=O)OC(C)(C)C)ccc1OCC(=O)O (stereo not given),-0.76,i,-4.3%
CCn1nnc(NC(=O)c2cc3ccccc3o2)n1,1.09,i,-0.5%
COc1ccccc1OCCn1c(C(C)O)nc2ccccc21 (stereo not given),0.04,i,-2.6%
Clc1ccc(CSc2nnc(-c3ccncc3)o2)cc1,0.63,i,0.7%
COc1ccc(N(CC(=O)NC2CCCC2)C(=O)c2csnn2)cc1,x,i,-4.9%
O=C(Nc1ccc(NC(=O)C2CC2)cn1)c1ccccc1Cl,-0.58,i,-0.1%
COc1cccc(NC(=O)Cn2nnc(-c3ccccc3N)n2)c1,0.21,i,-4.2%
CCCS(=O)(=O)c1nc(S(=O)(=O)c2ccc(C)cc2)c(NCCCN2CCOCC2)s1,-0.75,i,-1.0%
CCOc1ccccc1-n1c(SCC(=O)NC(C)CC)nnc1-c1ccoc1C (stereo not given),0.32,i,0.2%
COc1ccc(-c2nnc(SCC(=O)Nc3cccc(Cl)c3)o2)cc1,0.76,i,2.1%
N#CC1C(=O)NC(N2CCN(c3ccccc3)CC2)=NC12CCCCC2 (stereo not given),-0.08,i,-7.5%
Cc1csc(SCCn2c(N3CCCC3)nc3c2c(=O)[nH]c(=O)n3C)n1,0.47,i,-0.1%

# The last 6 records of the section above are carried over, then new ones follow.
structure,WNV NS2B-NS3 inh,MT1-MMP promoter,Hsc70 ATP site
COc1cccc(NC(=O)Cn2nnc(-c3ccccc3N)n2)c1,0.21,i,-4.2%
CCCS(=O)(=O)c1nc(S(=O)(=O)c2ccc(C)cc2)c(NCCCN2CCOCC2)s1,-0.75,i,-1.0%
CCOc1ccccc1-n1c(SCC(=O)NC(C)CC)nnc1-c1ccoc1C (stereo not given),0.32,i,0.2%
COc1ccc(-c2nnc(SCC(=O)Nc3cccc(Cl)c3)o2)cc1,0.76,i,2.1%
N#CC1C(=O)NC(N2CCN(c3ccccc3)CC2)=NC12CCCCC2 (stereo not given),-0.08,i,-7.5%
Cc1csc(SCCn2c(N3CCCC3)nc3c2c(=O)[nH]c(=O)n3C)n1,0.47,i,-0.1%
Cc1nc2nc(-c3ccccc3)nn2c(C)c1Cl,-1.42,i,-1.4%
Cc1cc(S(=O)(=O)NCC(C)C)ccc1OCC(=O)N1CCOCC1,-1.34,i,-3.9%
CCc1cc2c(=O)c(-c3ccc4c(c3)OCCO4)coc2cc1OC(=O)c1ccco1,0.06,i,-3.4%
O=C(NCc1ccccc1)c1ccc(OC2CSC2)cc1,0.15,i,-9.4%
COc1ccc(-c2nc(CS(=O)CC(=O)N3CCCC3)c(C)o2)cc1 (stereo not given),-0.28,i,0.1%
CCOC(=O)CSC1=Nc2ccccc2C2=NC(CC(=O)NCc3ccccc3)C(=O)N12 (stereo not given),1.74,i,-2.8%
Cc1cc(C)cc(NS(=O)(=O)c2ccc3[nH]cc(C(=O)NCc4ccco4)c(=O)c3c2)c1,0.12,i,2.9%
C=CCSc1nnc2nc3c(nn12)c1cc(C)ccc1n3CC=C,-0.75,i,5.2%
COc1ccc(-c2cn3c(C)c(C(=O)N4CCN(c5ccccc5F)CC4)sc3n2)cc1,-0.35,i,0.7%
COc1cccc(NC(=O)Cn2c(-c3cncs3)nc3ccccc32)c1,0.17,i,3.0%
COc1ccc(NC(=O)CCc2nc(-c3ccccc3F)no2)cc1,0.06,i,-3.3%
CCN(CC)C(=O)CSc1ncnc2c1nnn2-c1ccc(F)cc1,0.09,i,5.0%
Cc1ccc(Nc2nc(CSc3nnnn3C)cs2)cc1,-0.94,i,1.1%
CN(CC(=O)Nc1nccs1)S(=O)(=O)c1ccc(F)cc1,-0.36,i,0.9%
O=C(NC(Cc1c[nH]c2ccccc12)c1nnc2n1CCCCC2)c1ccccc1Cl (stereo not given),x,i,3.6%
Cc1ccc(OCc2nc(C#N)c(N3CCCC3)o2)cc1,-0.17,i,-2.3%
Oc1ccccc1-c1nc2cnccn2c1Nc1ccc2c(c1)OCCO2,x,i,-0.3%
